Screening data from PubChem.
HSV replic up – HSV replication enhancement | maximum fold increase | HSV replication augmentation in cells, fold increase | AID 1956 | actives 0.005% (n = 220,000);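 active means peak rise of 1.5-fold or more in the series; tested in PC3 cells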;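 further: first round at 10 µM; read as green reporter fluorescence; hits show the peak of a series up to 25 µM; 1 = signal of infected wells without compound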
GALR2 agonist – activates the human galanin receptor 2; GALR2-expressing cells, agonist activation read-out; activation, %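 (tested at 5 µM)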; actives 0.48% (n = 140,000); AID 803;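 active means above mean plus 3 SD of all compounds, about 5% in these data, not always enough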;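 further: 0% = vehicle buffer wells and 100% = reference agonist at full effect; tested in CHO reporter cells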
Insulin prom inh – TRM-6 insulin promoter activity inhibition; AID 1273; TRM-6 cells (human fetal islet line), insulin promoter-eGFP reporter, imaging; reporter expression induced with tamoxifen; actives 0.9% (n = 130,000); inhibition, % at 2 µM;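 active means inhibition above the mean plus 3 SD, with well images judged a real hit on visual review, cut at about 60% in these data, passing the limit was not always enough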
PKD1 inh – PKD1 (human) kinase inhibition; Q15139; PKD1 kinase fluorescence polarization assay; inhibition, %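 (about 10 µM by stock and volumes)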; actives 0.056% (n = 200,000); AID 797;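 active means inhibition of 50% or more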;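 further: controls were vehicle for no effect and a reference inhibitor for full effect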
Target sequence (Q15139 whole entry, looked up): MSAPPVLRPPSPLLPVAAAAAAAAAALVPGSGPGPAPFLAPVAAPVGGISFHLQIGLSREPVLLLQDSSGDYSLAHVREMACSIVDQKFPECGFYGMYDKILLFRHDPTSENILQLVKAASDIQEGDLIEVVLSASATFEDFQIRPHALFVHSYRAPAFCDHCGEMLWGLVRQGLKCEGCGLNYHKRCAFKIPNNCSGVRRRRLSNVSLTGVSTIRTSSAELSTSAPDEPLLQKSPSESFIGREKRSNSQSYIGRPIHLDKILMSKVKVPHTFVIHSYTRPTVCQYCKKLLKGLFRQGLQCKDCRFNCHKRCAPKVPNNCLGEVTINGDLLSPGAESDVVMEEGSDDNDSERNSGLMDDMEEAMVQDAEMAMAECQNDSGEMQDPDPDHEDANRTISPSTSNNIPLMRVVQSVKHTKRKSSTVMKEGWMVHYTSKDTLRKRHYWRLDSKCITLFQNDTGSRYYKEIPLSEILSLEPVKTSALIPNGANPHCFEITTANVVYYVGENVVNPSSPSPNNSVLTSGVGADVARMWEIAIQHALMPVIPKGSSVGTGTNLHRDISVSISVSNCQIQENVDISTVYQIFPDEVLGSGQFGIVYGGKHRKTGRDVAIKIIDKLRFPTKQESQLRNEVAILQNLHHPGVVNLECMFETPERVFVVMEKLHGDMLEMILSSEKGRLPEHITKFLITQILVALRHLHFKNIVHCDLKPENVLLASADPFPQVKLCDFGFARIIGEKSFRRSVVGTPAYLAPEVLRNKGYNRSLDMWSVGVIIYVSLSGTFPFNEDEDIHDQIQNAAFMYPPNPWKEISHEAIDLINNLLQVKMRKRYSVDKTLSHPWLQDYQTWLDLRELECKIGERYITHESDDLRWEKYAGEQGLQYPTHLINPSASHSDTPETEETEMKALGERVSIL
RGS16-Gao – modulates binding between human RGS16 and Galphao; O15492+P09471; bead-based flow cytometry RGS16-Galphao binding, fluorescence; actives lie on both sides; binding response (% of control), % at 10 µM; actives 0.38% (n = 220,000); AID 1441;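 active means below 25% or above 175%, edge rows of some plates excepted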;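 further: Galphao activated by GDP with aluminum fluoride before binding; 100% = wells without compound and 0% = beads without RGS; some results beyond the cut were filed as inactive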
Insulin prom inh cell count – also measured in Insulin prom inh; calls as there; normalized cell count, %; measured here: cell count, toxicity; reference of the scale not given here;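 cells exposed to compound for 48 h; stained nuclei by imaging scaled within each plate; lower means fewer cells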
HSV replic up primary fold – second read-out of HSV replic up, no call of its own (marks repeat the call); fold increase; compound at 10 µM; measured here: primary screen fold increase 10 uM; tested in PC3 cells;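 GFP signal in the first replicate; 1 = infected wells without compound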
Numbers without * were called inactive; i = inactive; · = not tested or not shown.

Sample of the layout:
SMILES	HSV replic up	HSV replic up primary fold	GALR2 agonist	Insulin prom inh	Insulin prom inh cell count	PKD1 inh	RGS16-Gao
COc1cc(/C=C2\C(=O)NN(c3ccc(C)cc3)C2=O)cc([N+](=O)[O-])c1O	i	1.06	·	0.0	89.0	-0.4	97.4
CCc1nnc(NS(=O)(=O)c2ccc(NC(=O)c3ccco3)cc2)s1	i	1.05	·	·	·	-6.6	92.2
O=C(NC1CCC(O)CC1)c1cc(-c2ccco2)nc2ccccc12 (stereo not given)	i	1.13	·	·	·	5.6	99.0
CCCCN(CCCC)CC(O)Cn1c2ccccc2c(=O)c2ccccc21 (stereo not given)	i	0.94	·	·	·	·	97.5
CCCN(CCC)C(=O)CC(c1ccccc1)C1CCOC(C)(C)C1 (stereo not given)	i	0.92	·	·	·	-4.2	99.1
CS(=O)(=O)N1CCN(C(=O)Cc2ccccc2Cl)CC1	i	0.87	·	-50.0	93.1	-6.1	95.5

Results, previewed entries included:
SMILES	HSV replic up	HSV replic up primary fold	GALR2 agonist	Insulin prom inh	Insulin prom inh cell count	PKD1 inh	RGS16-Gao
COc1cc(/C=C2\C(=O)NN(c3ccc(C)cc3)C2=O)cc([N+](=O)[O-])c1O	i	1.06	·	0.0	89.0	-0.4	97.4
CCc1nnc(NS(=O)(=O)c2ccc(NC(=O)c3ccco3)cc2)s1	i	1.05	·	·	·	-6.6	92.2
O=C(NC1CCC(O)CC1)c1cc(-c2ccco2)nc2ccccc12 (stereo not given)	i	1.13	·	·	·	5.6	99.0
CCCCN(CCCC)CC(O)Cn1c2ccccc2c(=O)c2ccccc21 (stereo not given)	i	0.94	·	·	·	·	97.5
CCCN(CCC)C(=O)CC(c1ccccc1)C1CCOC(C)(C)C1 (stereo not given)	i	0.92	·	·	·	-4.2	99.1
CS(=O)(=O)N1CCN(C(=O)Cc2ccccc2Cl)CC1	i	0.87	·	-50.0	93.1	-6.1	95.5
Cc1cccc(NC(=O)Nc2nnc(-c3ccccc3)o2)c1	i	1.11	·	-81.8	102.7	-5.1	97.2
Cc1nn(-c2ccccn2)c2c1-c1nc(N3CCOCC3)ncc1CC2	i	0.94	0.4	34.2	122.2	-6.8	98.0
COc1ccc(NC(=O)c2cccn(CC=C(C)C)c2=O)cc1	i	0.98	·	25.9	58.3	-10.8	112.1
COCCNC(=S)N/N=C(\C)c1ccccc1F	i	0.93	·	-22.2	80.5	4.8	95.8

Next section, overlapping the part above by two compounds.
SMILES	HSV replic up	HSV replic up primary fold	GALR2 agonist	Insulin prom inh	Insulin prom inh cell count	PKD1 inh	RGS16-Gao
COc1ccc(NC(=O)c2cccn(CC=C(C)C)c2=O)cc1	i	0.98	·	25.9	58.3	-10.8	112.1
COCCNC(=S)N/N=C(\C)c1ccccc1F	i	0.93	·	-22.2	80.5	4.8	95.8
COc1cc(/C=N/Nc2ccc(Cl)c(C(=O)O)c2)ccc1OCC(=O)N1C(C)CCCC1C (stereo not given)	i	0.92	·	-16.7	76.6	1.4	93.4
COc1ccc(NC(=S)NC(NC(=O)/C=C/c2ccccc2)C(Cl)(Cl)Cl)cc1 (stereo not given)	i	0.83	-1.6	-41.9	57.8	-4.0	101.1
O=C(CN1CCC(O)(c2ccc3c(c2)OCO3)CC1)N1CCOCC1	i	0.91	-4.3	27.6	32.9	-1.4	101.9
Cc1ccc(C2CC(c3cccc(Br)c3)n3nc(N)nc3N2)cc1 (stereo not given)	i	0.95	-0.1	·	·	-8.0	104.4
Cc1cc(C)nc(CCNC(=O)c2cc(COc3c(F)cccc3F)on2)n1	i	1.03	·	·	·	2.0	102.3
Cc1ccc(CSCCNC(=O)/C=C/c2ccccc2Cl)cc1	·	·	-0.9	·	·	-1.5	93.8
CCOC(=O)C1=C(C)NC(=O)CC1c1ccccc1OC (stereo not given)	i	1.24	·	·	·	-7.6	103.2
C/C(=N\NC(=O)COc1ccc(C)cc1Br)c1cc([N+](=O)[O-])cs1	i	1.03	·	·	·	-12.4	109.4
CC1COC(Cn2c3ccccc3c3ccccc32)O1 (stereo not given)	i	0.82	·	·	·	·	98.3
Cc1cc(C)cc(N(C(=O)c2nsc(Cl)c2Cl)C(C(=O)NC2CCCC2)c2ccc(O)cc2)c1 (stereo not given)	i	0.95	-1.1	-31.0	106.4	-6.6	110.2
Cn1c2ccccc2c2cc([N+](=O)[O-])ccc21	i	0.8	·	·	·	·	81.8
CC1(C)Cc2c(sc(NC(=O)C(C)(C)C)c2C#N)C(C)(C)N1	i	0.99	-2.5	-196.6	64.9	-6.8	112.4
O=C(CN(C(=O)c1ccc(Cl)cc1)N1C(=O)C2C3C=CC(C3)C2C1=O)c1cccs1 (stereo not given)	i	0.94	·	·	·	-7.9	103.0
C/C(=N\NC(=O)c1ccc(CN2CCOCC2)cc1)c1cccc([N+](=O)[O-])c1	i	0.78	-0.7	-3.6	107.0	-8.1	111.9
N#Cc1c(N)nc2c(c1N)CC(=O)N2c1ccccc1-c1ccccc1	i	0.93	-1.4	·	·	15.6	104.9
Cc1nnc(-c2cccc(Br)c2)c2cn(-c3ccc(Br)cc3)nc12	i	0.69	-3.5	·	·	1.7	93.2
CCOC(=O)c1c(C)[nH]c(C2=NNC(=Nc3cccc(Cl)c3)SC2)c1C	i	1.05	-2.2	18.9	144.1	-5.0	44.2
c1ccc(Cn2c(-c3cccs3)nc3nc4ccccc4nc32)cc1	i	0.977	-1.1	·	·	-18.6	96.2
O=C(CN1CCN(S(=O)(=O)c2ccccc2)CC1)Nc1ccc([N+](=O)[O-])cc1	i	0.95	-0.8	39.7	112.4	-10.9	104.5
CN(Cc1ccccc1)Cc1nc2c([nH]1)c(=O)n(C)c(=O)n2C	i	0.97	0.5	-105.3	113.1	1.4	102.4
COc1ccc(CSc2nc3ccccc3[nH]2)cc1	i	0.823	-2.0	·	·	13.5	109.5
Cc1cccc(N(Cc2ccc(Cl)cc2)S(C)(=O)=O)c1	i	0.92	·	-128.6	146.2	-2.0	98.6
Cc1cc2cc(CN(CC3CCCO3)C(=S)Nc3ccccc3)c(=O)[nH]c2cc1C (stereo not given)	i	0.69	0.0	-22.2	80.3	-14.8	113.2
Cn1c(NCCCO)nc2c1c(=O)n(Cc1ccccc1F)c(=O)n2C	i	0.77	-1.1	-146.5	109.4	-3.0	95.8
O=C(CCS(=O)(=O)Cc1ccccc1F)NCc1ccccc1Cl	i	0.92	·	-27.3	77.1	-8.3	104.7
CCCCCC(=O)N1CCN(CCN=CC2=C(O)CC(c3ccc(OC)cc3)CC2=O)CC1 (stereo not given)	i	0.94	0.7	25.0	90.1	-1.0	95.6
O=C(O)CCCNC(=O)/C(=C\C=C\c1ccccc1)NC(=O)c1ccccc1Cl	i	1.06	·	-70.4	82.2	-5.8	98.1
COc1ccccc1N1N=C(C(=O)c2ccccc2)C2C(=O)N(c3ccc(Br)cc3)C(=O)C21 (stereo not given)	i	1.11	·	·	·	·	97.0
CN(C(=O)CSc1nc(-c2ccccc2)c(-c2ccccc2)o1)C1CCS(=O)(=O)C1 (stereo not given)	i	0.84	·	-18.2	185.0	-9.8	111.6
CCn1c(SCc2ccc(F)cc2)nnc1-c1nn(-c2ccccc2)ccc1=O	i	0.94	0.3	24.0	66.1	-13.2	100.5
Cc1cc(=O)c2cc(Br)ccc2[nH]1	i	0.92	-2.9	17.9	157.4	-11.9	92.4
CCOC(=O)Cc1csc(NC(=O)CSc2nnc(-c3cccnc3)n2Cc2ccco2)n1	i	0.94	-2.0	-252.4	63.5	-2.9	106.5
Cc1[nH]n(-c2c(Cl)cc(Cl)cc2Cl)c(=O)c1C=Nc1ccc(S(=O)(=O)N2CCOCC2)cc1	i	0.95	-1.1	-15.8	103.3	-1.4	106.4
O=C(c1cc(-c2ccco2)nc2ccccc12)N1CCN(c2ccc(F)cc2)CC1	i	0.82	-2.4	24.1	134.8	-4.9	90.1
Cn1c(=O)c2c(nc(NCCCN3CCOCC3)n2Cc2cccc(Cl)c2)n(C)c1=O	i	0.81	-1.0	-7.7	209.9	-2.0	·
CCCCOC(=O)C1[C@H]2C(=O)N(Cc3cccs3)C[C@]23C=C[C@H]1O3 (stereo not given in full)	i	0.94	-0.9	·	·	3.6	93.1
CCc1c(C)c2c(C)nn(-c3ccccc3)c2oc1=O	i	0.81	-0.4	46.1	101.7	-0.1	105.8
CCC(C)C(NC(=O)C1CCC(C)CC1)C(=O)NC(C(=O)OC)C(C)C (stereo not given)	i	1.01	-1.6	·	·	-0.7	100.0
COc1ccc(CCN=C(N)NS(=O)(=O)c2ccccc2)cc1OC	i	1	-1.9	-53.3	110.5	-3.3	101.9
CC1Cc2nc(SCC(=O)N3CCc4ccccc43)n(C)c(=O)c2S1 (stereo not given)	·	·	-0.5	-18.2	61.8	4.0	102.8
COc1ccc(NC(=O)c2c(C(F)(F)F)nn(C)c2Cl)cc1	i	0.94	·	0.0	54.7	7.7	107.6
CC(C)CN1CCN(Cc2cccc3cccnc23)CC1CCO (stereo not given)	i	0.96	·	·	·	-3.5	107.5
CC1=C(C#N)C(=O)N(C2CCS(=O)(=O)C2)C(=O)/C1=C\c1ccco1 (stereo not given)	i	1.11	·	·	·	·	93.3
COc1cc(/C=C2\SC(=S)N(Nc3ncc(C(F)(F)F)cc3Cl)C2=O)cc(OC)c1OC	i	0.87	-2.0	0.0	80.5	3.8	112.1
O=C(N/C(=C/c1cccc([N+](=O)[O-])c1)C(=O)N1CCCCC1)c1cccs1	i	1.07	-1.1	23.7	115.1	-9.1	110.2
Nc1nc2c(s1)COc1ccccc1-2	i	1.1	·	·	·	4.4	94.4
Cn1c(=O)cc(OCCCC(=O)NCc2ccco2)c2ccccc21	i	0.77	-0.9	-42.9	180.1	-6.9	69.0
FC(F)(F)c1ccc(-n2ccnc2)nc1	i	0.93	-2.6	22.6	121.2	1.2	28.4
Cc1ccc(C(=O)c2cc3ccccc3o2)cc1C	i	0.84	-1.2	-38.5	46.5	-10.1	113.2
COc1ccc(/C=C/C(=O)Nc2nc(C)c(C(=O)N(C)C)s2)cc1OC	i	0.93	-0.4	38.9	103.1	8.5	110.3

Later entries.
SMILES	HSV replic up	HSV replic up primary fold	GALR2 agonist	Insulin prom inh	Insulin prom inh cell count	PKD1 inh	RGS16-Gao
Cc1cccn2c(=O)c3cc(C(=O)NC4CCS(=O)(=O)C4)sc3nc12 (stereo not given)	·	·	0.5	·	·	-4.5	113.8
Cc1cc(C(=O)OCC(=O)Nc2cc(C(F)(F)F)ccc2N2CCOCC2)c(C)o1	i	0.977	1.0	·	·	-2.0	96.0
Cc1cc(C)c(S(=O)(=O)N(C)CC(=O)N2CCCCC2)c(C)c1	i	0.88	-1.7	-103.5	152.1	3.2	101.8
CN(C)S(=O)(=O)c1ccc(Cl)c(NC(=O)CN2CCc3ccccc3C2)c1	i	0.88	·	-10.5	119.8	-1.9	100.1
Cc1ccc(S(=O)(=O)N2CCCC(C(=O)NCC(C)C)C2)cc1 (stereo not given)	i	0.89	·	·	·	-10.2	102.6
CNCCCOc1ccc2c(c1)CCC2	i	1.01	·	·	·	1.3	157.2
COc1cc(NS(=O)(=O)c2ccc(NC(=O)COc3ccccc3Cl)cc2)nc(OC)n1	i	0.83	-0.9	2.7	106.5	-1.7	96.4
COC(=O)c1ccc(N=NNc2ccc(C(=O)OC)cc2)cc1	i	0.99	0.4	-17.2	122.4	-0.7	100.0
Cc1cc(NC(=O)COc2c(C)cccc2C)no1	i	0.98	·	·	·	5.8	95.6
Nc1cccnc1Oc1ccc(F)cc1	i	0.96	·	·	·	·	107.2
COc1cc(/C=C2/SC(N)=NC2=O)ccc1Oc1ccc([N+](=O)[O-])cc1[N+](=O)[O-]	i	1	-0.6	50.0	27.5	23.9	95.3
C=CCn1c(CCc2cc(C(C)(C)C)c(O)c(C(C)(C)C)c2)n[nH]c1=S	i	0.96	·	21.4	115.2	1.3	98.3
Cc1cc(NC(=O)c2cncc(Br)c2)n(-c2ccccn2)n1	·	·	-0.7	35.7	108.7	-1.7	102.3
CC12COC3(C(N)=O)CC1CCC32C (stereo not given)	i	1.14	-2.5	·	·	4.0	114.5
Nc1nnc(N2CCc3ccccc32)s1	i	0.84	-1.0	14.3	129.6	0.2	106.4
CN=C(NC#N)SCC(=O)c1ccc(Cl)cc1Cl	i	0.93	-0.3	·	·	-12.0	101.8
C#CCNC(=O)C1=C[C@@H](c2ccc(Br)cc2)C[C@@H](OCc2ccc(CO)cc2)O1	i	0.78	·	·	·	-6.0	95.6
Oc1c(C(c2ccccc2)N2CCN(Cc3ccccc3)CC2)sc2ncnn12 (stereo not given)	i	0.9	-1.0	·	·	-0.8	102.4
Cc1ccc2nc(/C(C#N)=N/O)[nH]c2c1	i	0.9	-2.8	-13.8	80.4	1.1	102.7
COCCn1c(SCC(=O)N2CCc3ccccc3C2)nc2cc(Cl)ccc2c1=O	i	0.8	0.2	14.8	86.9	-11.1	100.0
